Source: PubChem BioAssay
NS1 inh – inhibitors of influenza NS1 protein function; S. cerevisiae slowed by influenza A NS1, growth recovery by OD600; Potency, µM (doses to about 46.1 µM), without a hit: at the highest dose activity, positive = more growth; 270,000 tested, 0.4% active; active means well fitted rising curve with a large enough effect; inconclusive means small, poorly fitted or top-dose-only effect; inactive means no such curve, though single readings can be large or run the other way; further: nearly all actives have a fitted effect of over 50% in size
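OD600 was taken as the measure of yeast growth restored by compound in an NS1-expressing S. cerevisiae strain. Cells had been washed out of glucose medium and diluted 1:100 into galactose -URA medium, pH 6.0.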
MARV entry inh – blocks Marburg virus binding to or entry into cells; Marburg virus pseudotyped entry inhibition, cell reporter; control for the full effect not named in the record; about a third of the inactives were read at about 46 µM; Potency, µM (series often up to 37.8 µM), for the others: top-dose activity change, negative = inhibition, actives largely listed as inhibitors; 300,000 tested, 1.8% active; AID 540276; active = well fitted inhibition curve with a large enough effect; inconclusive = small, poorly fitted or top-dose-only effect, or effect the other way; inactive = flat fitted curve, though single readings scatter; tested in HEK293 cells; about a fifth of its hits are not listed in these tables; further: on the % scale 0 is the no-effect control and ±100 the full control effect; luciferase read-out
2A StopGo – FMDV 2A StopGo reporter, luciferase signal; human cells with a luciferase reporter of 2A StopGo recoding; control for the full effect not named in the record; Potency, µM (top dose mostly 57.9 µM), inactives show at the top dose signal change, negative = less light; 410,000 tested, 1.2% active; AID 1159524; active = well fitted falling curve with a large enough effect; inconclusive = small, poorly fitted or top-dose-only effect; inactive = no such curve, though single readings can be large or run the other way; tested in HEK293T cells; further: on the % scale 0 is the no-effect control and ±100 the full control effect; nearly all actives have a fitted effect of over 45% in size; luciferase light after 4 h
Lassa entry inh – inhibitors of Lassa virus binding or cell entry; Lassa virus pseudotype entry inhibition, cell reporter; control for the full effect not named in the record; Potency, µM (doses to about 37.9 µM), inactives show top-dose activity change, negative = inhibition, usual class: inhibitors; 300,000 tested, 1.2% active; active means well fitted inhibition curve with a large enough effect; inconclusive means small, poorly fitted or top-dose-only effect, or effect the other way; inactive means flat fitted curve, though single readings scatter; tested in HEK293 cells; further: on the % scale 0 is the no-effect control and ±100 the full control effect; nearly all actives have a fitted effect of over 50% in size; luciferase read-out
RE007 growth inh – less growth of the S. pombe RE007 Vpr strain; S. pombe RE007 Vpr strain, BacTiter-Glo ATP luminescence, 24 h; control for the full effect not named in the record; Potency, µM (titrated, usually from 92.2 µM), inactives show at the highest dose activity change, negative = less growth; 360,000 tested, 0.21% active; active = well fitted falling curve with a large enough effect; inconclusive = small, poorly fitted or top-dose-only effect; inactive = no such curve, though single readings can be large or run the other way;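 further: on the % scale 0 is the no-effect control and ±100 the full control effect; nearly all actives have a fitted effect of over 50% in size; the assay follows cell death caused by Vpr and the record does not say whether a fall means rescue or toxicity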
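Fission yeast strain RE007, carrying one chromosomally integrated HIV-1 vpr copy, was seeded at OD 0.01 in PMG+AL medium with 23 nL pinned compound. After 24 h at 30 °C and 99% humidity, viability was read by BacTiter-Glo luminescence.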
SARS PLP yeast – SARS-CoV PLP inhibition in yeast; S. cerevisiae expressing SARS-CoV PLpro, growth rescue; control for the full effect not named in the record; Potency, µM (titrated, usually from 32.9 µM), for inactives: top-dose activity, positive = growth rescue; 330,000 tested, 0.19% active; AID 485353; active means well fitted rising curve with a large enough effect; inconclusive means small, poorly fitted or top-dose-only effect; inactive means no such curve, though single readings can be large or run the other way; further: 0% is about no effect; nearly all actives have a fitted effect of over 55% in size; growth read by luminescence after 48 h
Cruzain Triton – inhibitors of Trypanosoma cruzi cruzain with detergent | P25779 | purified cruzain, Z-FR-AMC fluorescence, 0.01% Triton | Potency, µM, without a hit: max response, negative = inhibition, actives largely listed as inhibitors | 200,000 tested, 0.43% active | AID 1478;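 further: plate controls were neutral wells for no effect and buffer without enzyme for full effect; nearly all actives have a fitted effect of over 40% in size; top concentration of the series not given in the record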
Target sequence (P25779 123-467 limits assumed): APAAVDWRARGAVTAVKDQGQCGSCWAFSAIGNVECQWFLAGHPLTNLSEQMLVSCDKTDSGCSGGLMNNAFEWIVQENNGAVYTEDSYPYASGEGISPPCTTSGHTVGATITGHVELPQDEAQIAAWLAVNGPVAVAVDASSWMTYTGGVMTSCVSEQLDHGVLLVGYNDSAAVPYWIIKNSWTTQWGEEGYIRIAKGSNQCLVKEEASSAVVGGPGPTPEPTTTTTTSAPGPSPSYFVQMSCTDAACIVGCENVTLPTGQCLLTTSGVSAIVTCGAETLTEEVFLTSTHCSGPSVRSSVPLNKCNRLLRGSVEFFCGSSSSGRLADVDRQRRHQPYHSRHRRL
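Detergent-containing arm of a paired screen for aggregation-based inhibition: 0.01% Triton X-100 present. Cruzain at 1.5 nM cleaved 2 uM Z-FR-AMC at pH 5.5 with 5 mM DTT; AMC fluorescence gain over 60 s measured activity.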
Cruzain inh noDet – cruzain (T. cruzi) inhibition without detergent; P25779; purified cruzain, Z-FR-AMC fluorescence, no detergent; 200,000 tested, 2.3% active; Potency, µM, without a hit: max response, negative = inhibition, usual class: inhibitors;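 further: plate controls were enzyme without inhibitor for no effect and buffer without enzyme for full effect; nearly all actives have a fitted effect of over 40% in size; top concentration of the series not given in the record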
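Detergent-free condition (0.00005% Triton X-100) in acetate buffer pH 5.5 with DTT. 1.5 nM enzyme and compound were pre-mixed 15 min, then 2 uM Z-FR-AMC substrate added; reaction progress from fluorescence change between first and third reads (60 s).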
An asterisk follows results filed as active; u = inconclusive; x = not tested or not shown; & = joins results of further samples; [ ] = another dose, or the depositor's remark. Unless noted, the call rests on the fitted dose curve; in most records, active means well fitted curve in the direction sought with a large enough effect; inconclusive means small, poorly fitted or top-dose-only effect, or another doubt; inactive means no such curve, though single readings can be large; an effect the other way counts as inactive or inconclusive. Potency means the concentration at half of the fitted maximal effect.

nr	molecule	NS1 inh	MARV entry inh	2A StopGo	Lassa entry inh
1	O=C(O)c1cccc(Cn2c(Cl)c(/C=N/NC(=O)c3ccccc3)sc2=O)c1	4%	9%	-12%	-10%
2	NC(=O)CSc1nc2cc([N+](=O)[O-])ccc2n1-c1cccc(C(F)(F)F)c1	4%	-22%	-13%	7%
3	Cc1ccccc1NC(=O)c1sc2nc[nH]c(=O)c2c1C	-5%	u	x	25%
4	CCn1c(=O)c(C2=NS(=O)(=O)c3ccccc3N2)c(O)c2ccccc21	u	x	x	x
5	CCOC(=O)N1CCN(C(=O)c2cc3cc(C)ccc3[nH]2)CC1	0%	x	15%	x
6	COc1ccc(-c2noc(CCC(=O)N3CCN(c4cccc(OC)c4)CC3)n2)cc1	x	0%	u	x
7	COCCN1C(=O)c2[nH]nc(-c3ccccc3O)c2C1c1ccc(OCc2ccccc2)c(OC)c1 (stereo not drawn)	x	-9%[46.1 µM]	-4%	u
8	CC1=C(C(=O)Nc2ccc(Cl)cc2)C(c2ccc(C(F)(F)F)cc2)n2nnnc2N1 (stereo not drawn)	x	-3%[46.1 µM]	u	8%[46.1 µM]

nr	RE007 growth inh	SARS PLP yeast	Cruzain Triton	Cruzain inh noDet
1	-11%	0%	-3.1%	-16%
2	-6%	7%	-11%	8%
3	-11%	0%	1.3%	11%
4	x	2%	4.3%	-7%
5	6%	u	x	x
6	-17%	-8%	x	x
7	x	x	-7.4%	-26%
8	x	x	-7.1%	-10%

Additional entries
nr	molecule	NS1 inh	MARV entry inh	2A StopGo	Lassa entry inh
9	CCOC(=O)N1CCN(C(=O)COc2ccc3c(c2)C(=O)CC2(CCN(C(C)=O)CC2)O3)CC1	-2%	-3%&1%	17%	3%
10	CCOc1ccc(Cl)cc1S(=O)(=O)NC1CCCC1	-8%	-13%[46.1 µM]	24%	4%[46.1 µM]
11	O=C(Nc1ccc(Cl)cc1C(=O)NCC1CCCO1)c1ccco1 (stereo not drawn)	-42%	-9%	-9%	9%
12	CCOC(=O)CSc1nnnn1-c1cc(OC)ccc1OC	1%	-9%	25%	-38%[14.3 µM]
13	CCn1c2ccccc2c2cc(NC(=O)CSc3nnc(-c4cccc(F)c4)o3)ccc21	4%	u	0%	u
14	Cc1ccc2c(c1)c1ncnc(N3CCOCC3)c1n2C	-42%	u	-18%	u
15	CCOc1ccccc1/C=N/NC(=O)c1nnn(-c2nonc2N)c1CN1CCCC1	-4%	x	-6%	x
16	Cc1c(NC(=O)Nc2ccccc2)c(=O)n(-c2ccccc2)n1C	1%	9%[46.1 µM]	3%	u

nr	RE007 growth inh	SARS PLP yeast	Cruzain Triton	Cruzain inh noDet
9	10%	1%	0.4%	-3%
10	8%	15%	x	x
11	-17%	x	-2.9%	-6%
12	18%	10%	-1.0%	2%
13	10%	-1%	-9.9%	u
14	-12%	6%	-9.2%	5%
15	4%	0%	x	x
16	-5%	-1%	x	x

3 structures out of the list, ordered by SMILES length, low to high:
nr	molecule	NS1 inh	MARV entry inh	2A StopGo	Lassa entry inh
12	CCOC(=O)CSc1nnnn1-c1cc(OC)ccc1OC	1%	-9%	25%	-38%[14.3 µM]
11	O=C(Nc1ccc(Cl)cc1C(=O)NCC1CCCO1)c1ccco1 (stereo not drawn)	-42%	-9%	-9%	9%
15	CCOc1ccccc1/C=N/NC(=O)c1nnn(-c2nonc2N)c1CN1CCCC1	-4%	x	-6%	x

nr	RE007 growth inh	SARS PLP yeast	Cruzain Triton	Cruzain inh noDet
12	18%	10%	-1.0%	2%
11	-17%	x	-2.9%	-6%
15	4%	0%	x	x

The listing continues.
nr	molecule	NS1 inh	MARV entry inh	2A StopGo	Lassa entry inh
17	O=C(COn1nnc2ccc(Cl)cc21)NC12CC3CC(CC(C3)C1)C2	-52%	u	-15%	-15%
18	CC(NC(=O)CNC(=O)c1sc2ccccc2c1Cl)c1cccnc1 (stereo not drawn)	5%	1%[46.1 µM]	2%	-15%[46.1 µM]
19	Cc1nnnn1/C(=C\c1ccccc1)C(=O)OCC(=O)NC(C)(C)C	-1%	6.3µM*	18µM*	-19%
20	O=C(NCCO)/C(=C\c1ccc(Br)cc1)NC(=O)c1cccs1	4%	-22%	0%	u
21	COc1ccccc1CCC(=O)N1CCC(n2nccc2NC(=O)CC(C)C)CC1	-2%	1%	3%	18%
22	CCCn1nnc(NC(=S)NC(=O)/C=C/c2ccc(Cl)cc2)n1	3%	27%[46.1 µM]	9%	-22%[46.1 µM]
23	Cn1c(N)c(S(=O)(=O)N2CCN(c3ccccc3)CC2)c(=O)n(C)c1=O	x	11%[46.1 µM]	-6%	5%[46.1 µM]
24	COc1ccc(OC)c(CCNc2ncnc3onc(-c4ccc(Cl)cc4)c23)c1	x	x	-24%	u

nr	RE007 growth inh	SARS PLP yeast	Cruzain Triton	Cruzain inh noDet
17	4%	-3%	1.6%	-8%
18	-7%	4%	x	x
19	-12%	9%	-3.0%	5%
20	-4%	2%	-1.0%	14%
21	13%	-3%	x	x
22	-13%	-4%	x	x
23	-1%	-2%	x	x
24	x	x	-4.3%	-4%

Sorted by length of the SMILES (ascending): 15 of the compounds above
nr	molecule	NS1 inh	MARV entry inh	2A StopGo	Lassa entry inh
10	CCOc1ccc(Cl)cc1S(=O)(=O)NC1CCCC1	-8%	-13%[46.1 µM]	24%	4%[46.1 µM]
14	Cc1ccc2c(c1)c1ncnc(N3CCOCC3)c1n2C	-42%	u	-18%	u
11	O=C(Nc1ccc(Cl)cc1C(=O)NCC1CCCO1)c1ccco1 (stereo not drawn)	-42%	-9%	-9%	9%
18	CC(NC(=O)CNC(=O)c1sc2ccccc2c1Cl)c1cccnc1 (stereo not drawn)	5%	1%[46.1 µM]	2%	-15%[46.1 µM]
16	Cc1c(NC(=O)Nc2ccccc2)c(=O)n(-c2ccccc2)n1C	1%	9%[46.1 µM]	3%	u
19	Cc1nnnn1/C(=C\c1ccccc1)C(=O)OCC(=O)NC(C)(C)C	-1%	6.3µM*	18µM*	-19%
17	O=C(COn1nnc2ccc(Cl)cc21)NC12CC3CC(CC(C3)C1)C2	-52%	u	-15%	-15%
21	COc1ccccc1CCC(=O)N1CCC(n2nccc2NC(=O)CC(C)C)CC1	-2%	1%	3%	18%
24	COc1ccc(OC)c(CCNc2ncnc3onc(-c4ccc(Cl)cc4)c23)c1	x	x	-24%	u
15	CCOc1ccccc1/C=N/NC(=O)c1nnn(-c2nonc2N)c1CN1CCCC1	-4%	x	-6%	x

nr	RE007 growth inh	SARS PLP yeast	Cruzain Triton	Cruzain inh noDet
10	8%	15%	x	x
14	-12%	6%	-9.2%	5%
11	-17%	x	-2.9%	-6%
18	-7%	4%	x	x
16	-5%	-1%	x	x
19	-12%	9%	-3.0%	5%
17	4%	-3%	1.6%	-8%
21	13%	-3%	x	x
24	x	x	-4.3%	-4%
15	4%	0%	x	x

nr	molecule	NS1 inh	MARV entry inh	2A StopGo	Lassa entry inh
23	Cn1c(N)c(S(=O)(=O)N2CCN(c3ccccc3)CC2)c(=O)n(C)c1=O	x	11%[46.1 µM]	-6%	5%[46.1 µM]
13	CCn1c2ccccc2c2cc(NC(=O)CSc3nnc(-c4cccc(F)c4)o3)ccc21	4%	u	0%	u
8	CC1=C(C(=O)Nc2ccc(Cl)cc2)C(c2ccc(C(F)(F)F)cc2)n2nnnc2N1 (stereo not drawn)	x	-3%[46.1 µM]	u	8%[46.1 µM]
7	COCCN1C(=O)c2[nH]nc(-c3ccccc3O)c2C1c1ccc(OCc2ccccc2)c(OC)c1 (stereo not drawn)	x	-9%[46.1 µM]	-4%	u
9	CCOC(=O)N1CCN(C(=O)COc2ccc3c(c2)C(=O)CC2(CCN(C(C)=O)CC2)O3)CC1	-2%	-3%&1%	17%	3%

nr	RE007 growth inh	SARS PLP yeast	Cruzain Triton	Cruzain inh noDet
23	-1%	-2%	x	x
13	10%	-1%	-9.9%	u
8	x	x	-7.1%	-10%
7	x	x	-7.4%	-26%
9	10%	1%	0.4%	-3%

Rows were taken by chance; about 4.7% have a hit in one of these screens.
